From PubChem
KCNQ2 block = KCNQ2 potassium channel inhibitors, primary screen, cell-based, CHO-K1, FluxOR thallium flux, B-score (AID 2156) | O88943 | 20 min; stronger effect = lower value; only compounds with negative scores are shown here; some inactives read as strong as hits | B-score at 10 µM | actives 1.1% (n = 310,000);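 active = fluorescence ratio B-score at most minus 3 library SDs, with starting brightness B-score within 2 library SDs, cut at about -5.5 in these data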
Target sequence (O88943 whole entry, looked up): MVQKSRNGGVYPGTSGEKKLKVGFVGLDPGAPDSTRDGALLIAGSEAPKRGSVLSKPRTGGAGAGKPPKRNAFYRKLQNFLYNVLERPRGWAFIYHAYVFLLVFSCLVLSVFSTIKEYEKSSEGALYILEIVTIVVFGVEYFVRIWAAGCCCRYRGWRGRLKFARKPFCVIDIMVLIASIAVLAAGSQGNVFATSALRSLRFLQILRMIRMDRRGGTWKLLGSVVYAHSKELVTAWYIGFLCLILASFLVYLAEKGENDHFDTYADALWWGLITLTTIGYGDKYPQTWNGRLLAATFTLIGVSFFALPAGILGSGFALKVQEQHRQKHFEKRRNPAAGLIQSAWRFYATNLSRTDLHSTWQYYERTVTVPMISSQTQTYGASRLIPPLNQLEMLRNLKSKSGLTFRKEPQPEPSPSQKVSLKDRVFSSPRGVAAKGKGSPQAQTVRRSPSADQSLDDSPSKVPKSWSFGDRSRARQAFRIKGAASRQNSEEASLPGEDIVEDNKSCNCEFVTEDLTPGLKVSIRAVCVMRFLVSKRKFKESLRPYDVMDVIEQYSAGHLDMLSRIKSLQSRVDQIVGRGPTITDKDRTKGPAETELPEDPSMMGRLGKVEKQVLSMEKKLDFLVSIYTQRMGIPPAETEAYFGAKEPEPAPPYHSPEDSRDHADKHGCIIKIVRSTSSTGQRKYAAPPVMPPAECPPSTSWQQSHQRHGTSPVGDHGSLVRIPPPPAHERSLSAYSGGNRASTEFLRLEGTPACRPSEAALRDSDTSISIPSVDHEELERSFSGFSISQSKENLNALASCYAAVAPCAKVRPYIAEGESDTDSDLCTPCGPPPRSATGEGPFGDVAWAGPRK
KCNQ2 block baseline = recorded beside KCNQ2 block, whose call it bears; B-score; measured here: initial fluorescence intensity artifact check;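 brightness before thallium and not channel activity; 0 = typical well and far values either way flag optical interference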
Active calls of the source: *; i = inactive; & = joins results of further samples. Not all compounds are listed (hit frequency here may not be typical).

SMILES	KCNQ2 block	KCNQ2 block baseline
Cc1ccc(NC(=O)c2cc(N3C(=O)C=CC3=O)ccc2N2CCOCC2)cc1	i	0.48
CCN(CC)S(=O)(=O)c1cccc(NC(=O)CNC2CCCCCC2)c1	i	0.26
O=C(/C=C/c1cccc(Cl)c1)NCCN1CCOCC1	i	1
CCn1c(C(C)NC(=O)c2cccc(C)c2)nc2ccccc21 (stereo not given)	i	-1.4
O=C(C1CCN(C2CC(=O)N(c3ccc(Cl)cc3)C2=O)CC1)N1CCOCC1 (stereo not given)	i	-0.4
CC(=O)C1=C(O)C(=O)N(c2ccccn2)C1c1ccc(Cl)cc1 (stereo not given)	i	0.05
CC(OC(=O)CNC(=O)c1ccco1)C(=O)Nc1ccc(Cl)cn1 (stereo not given)	i	-0.01
C[C@@]12CCC=C[C@H]1[C@H](c1ccc3ccccc3c1)N(Cc1ccccc1)C2=O	i	1
CC(C)(C)NC(=O)Cn1ccc(=N)c2ccccc21	i	0.68
O=C(COC(=O)c1cc(Cl)ccc1O)NCCC1=CCCCC1	i	-1.8
O=C(Cc1cccc2ccccc12)Nc1ccc2oc(-c3ccccc3)nc2c1	i	-0.67
CNc1cccc2c1C(=O)c1ccccc1C2=O	i	1.3
CC1(C)Cc2c(sc(NC(=O)C3CC(Cl)=CCC3C(=O)O)c2C#N)CO1 (stereo not given)	i	-1
C=CCn1c(SCC(=O)NCC2CCCO2)nc2scc(-c3ccccc3)c2c1=O (stereo not given)	i	0.67
CCCC(=O)NC(c1ccc(C(C)C)cc1)c1ccc2cccnc2c1O (stereo not given)	i	2.2
O=C(Nc1ccccc1)C1Cc2ccccc2CN1C(=O)c1ccco1 (stereo not given)	i	-0.28
Cc1cc(Cl)ccc1OCC(=O)N1C(C)CCCC1C (stereo not given)	i	6.3
CCOc1ccccc1Nc1nc(-c2sc(NC(=O)c3ccc([N+](=O)[O-])cc3)nc2C)cs1	i	0.07
COc1ccccc1NC(=O)Nc1ccc(Br)cn1	i	2
O=C(NCCCCNC(=O)c1ccccc1Br)c1ccccc1Br	i	-0.18
O=C(CCCSc1nc(-c2ccco2)cc(C(F)(F)F)n1)NCc1cccs1	i	1.7
Cn1nc(C(F)(F)F)c(C(=O)Nc2ccc(C(F)(F)F)cc2)c1Cl	i	2.8
Cc1cc2cc(CNC(=O)c3ccc4c(c3)OCO4)ccc2n1C	i	0.64
CC(C)Cn1c(N)c(C(=O)COC(=O)C2CC(=O)N(Cc3ccccc3Cl)C2)c(=O)n(C)c1=O (stereo not given)	i	0.75
CCOCCCNC(=O)C(NC(=O)CNC(=O)c1ccccc1)c1ccc(OC)cc1 (stereo not given)	i	-0.67
CCCCn1c(SCC(=O)Nc2cccc(OC)c2)nc2ccc(N3CCOCC3)cc2c1=O	i	2.2
Cc1cc(=O)[nH]c(-c2ccccc2OC(F)(F)F)n1	i	-0.5
COc1cc(C(=O)Nc2cccc(-n3cnnn3)c2)cc(OC)c1OC	i	0.6
Cc1cc(CNC(=O)COc2ccc(C)c(C)c2)c2ccccc2n1	i	-2.8
COc1cc2c(cc1OC)C(CCc1ccccc1)=NCC2	i	0.01
Cc1cc(C(=O)N/N=C/c2ccc3c(c2)OCO3)c2ccccc2n1	i	1.6
Cc1ncsc1CCOC(=O)c1cccc([N+](=O)[O-])c1	i	1.5&0.11
COc1ccccc1N1CC(C(=O)Nc2nnc(SCC(=O)N3CCOCC3)s2)CC1=O (stereo not given)	i	0.35
N#Cc1cccnc1N1CCN(C(=O)c2cccs2)CC1	i	-0.04
COc1ccccc1Cn1c(=O)c2ccccc2n2c(SCc3csc(C)n3)nnc12	i	-0.05
O=C(CN(CC1CCCO1)S(=O)(=O)c1ccc(S(=O)(=O)NCC2CCCO2)cc1)Nc1ccccc1 (stereo not given)	i	-0.72
Cc1cccc(OCC(=O)Nc2ccc(N3CCN(S(C)(=O)=O)CC3)cc2)c1C	i	0.12
CCCCn1c(N)c(N(CCOC)C(=O)CSCc2ccc(Cl)c(Cl)c2)c(=O)[nH]c1=O	i	0.92
O=c1cc(-c2ccccc2)nc2nc(-c3ccccc3)[nH]n12	i	-0.01
CC(C)CN(CC(C)C)C1=N/C(=C\c2ccco2)C(=O)N1c1ccccc1	-7.4*	-0.06*
CSc1nc(N(C)NC(=O)c2ccc(F)cc2)c2ccccc2n1	i	0.17
COCCOc1ccc(C(F)(F)F)cc1NC(=O)CN1C(=O)NC2(CCc3ccccc32)C1=O (stereo not given)	i	0.05
O=C(c1ccco1)N1CCN(c2ncnc3scc(-c4ccc(F)cc4)c23)CC1	i	0.91
Cc1ccc(CN(Cc2ccccc2)C(=S)NCC(=O)NCc2cccnc2)o1	i	-0.08
O=C(CCNS(=O)(=O)c1ccc(Cl)cc1)Nc1ccncc1	i	0.02

Overlap with the part before: 5 compounds, then new ones.
SMILES	KCNQ2 block	KCNQ2 block baseline
CSc1nc(N(C)NC(=O)c2ccc(F)cc2)c2ccccc2n1	i	0.17
COCCOc1ccc(C(F)(F)F)cc1NC(=O)CN1C(=O)NC2(CCc3ccccc32)C1=O (stereo not given)	i	0.05
O=C(c1ccco1)N1CCN(c2ncnc3scc(-c4ccc(F)cc4)c23)CC1	i	0.91
Cc1ccc(CN(Cc2ccccc2)C(=S)NCC(=O)NCc2cccnc2)o1	i	-0.08
O=C(CCNS(=O)(=O)c1ccc(Cl)cc1)Nc1ccncc1	i	0.02
O=C(O)CCC(NS(=O)(=O)c1ccc(-c2ccccc2)cc1)C(=O)O (stereo not given)	i	0.63
CCOC(=O)N1CCC2(CC1)C(C#N)=C(N)Oc1c2c(C)nn1-c1cccc(Cl)c1	i	2.9
Cc1ccc(-c2nnn(CC(=O)N3CCCCC3)n2)cc1	i	0.55
CCOC(=O)N1CCN(S(=O)(=O)c2ccc(OCC(=O)OC)c(C)c2)CC1	i	-0.11
Cc1cc(SCC(=O)NCC2CCCO2)nc2ccccc12 (stereo not given)	i	0.36
COc1ccc(Br)cc1CN(C)C(=O)c1ccccc1OCc1c(C)noc1C	-8.6*	-1.5*
COCc1cccc(C(=O)NC(c2ccccc2)c2ccccc2)c1	i	-0.95
Cc1cccc(C(=O)N[C@H](C(=O)OCc2cc(=O)n3c(n2)sc2ccccc23)C(C)C)c1	i	-1
CC1=C(C(=O)OC(C)(C)C)C(c2cccc3ccccc23)NC(=O)N1 (stereo not given)	i	-2.3
CCCOc1ccc(S(=O)(=O)n2cc(Br)c(=O)[nH]c2=O)cc1	i	-0.12
Cc1ccc(C2(C)NC(=O)N(CC(=O)NC(=O)NC(C)(C)C)C2=O)cc1 (stereo not given)	i	0.23
O=S(=O)(NOCc1ccc(Cl)cc1)c1ccc(Cl)cc1	i	0.23
CCCCN(CCCC)c1nc(-c2ccncc2)nc2ccccc12	i	0.39
c1ccc(-c2cn3c(n2)CCc2ccc4cccnc4c2-3)cc1	i	-0.17
CCC(C(=O)NCc1ccco1)N(C(=O)CNS(=O)(=O)c1ccc(C)cc1)c1ccccc1F (stereo not given)	i	0.31

3 entries out of the list, ordered by length of the SMILES, smallest number first.
SMILES	KCNQ2 block	KCNQ2 block baseline
Cc1cc(Cl)ccc1OCC(=O)N1C(C)CCCC1C (stereo not given)	i	6.3
O=C(NCCCCNC(=O)c1ccccc1Br)c1ccccc1Br	i	-0.18
O=C(CCNS(=O)(=O)c1ccc(Cl)cc1)Nc1ccncc1	i	0.02

3 records drawn at random from those above:
SMILES	KCNQ2 block	KCNQ2 block baseline
c1ccc(-c2cn3c(n2)CCc2ccc4cccnc4c2-3)cc1	i	-0.17
Cc1cccc(OCC(=O)Nc2ccc(N3CCN(S(C)(=O)=O)CC3)cc2)c1C	i	0.12
CCC(C(=O)NCc1ccco1)N(C(=O)CNS(=O)(=O)c1ccc(C)cc1)c1ccccc1F (stereo not given)	i	0.31

The listing continues:
SMILES	KCNQ2 block	KCNQ2 block baseline
CCOc1ccc(Oc2c(/C=N/NC(C)=O)c(C)nn2-c2ccccc2)cc1	i	-0.88
COc1ccc(CN2CCN(c3ccccc3OC)CC2)c(OC)c1	i	0.55
CCOC(=O)CSC(CC)C(=O)Nc1nnc(CC)s1 (stereo not given)	i	-1.1
CCN(CC(=O)Nc1ccc2c(c1)OCCO2)c1nc(-c2cccnc2)nc2ccccc12	i	-1.4
Cc1noc(COc2ccc(OCc3nc(C)no3)cc2)n1	i	-1.4
C=CCN1CC(O)=C(c2ccccc2)C1=N	i	0.91
CC(=O)Nc1cc2c(cc1C(=O)c1ccccc1)OCCO2	i	-0.69
Cc1nnc(SCC2=C(C(=O)O)N3C(=O)C(NC(=O)Cn4ncc(Cl)c4C)C3SC2)s1 (stereo not given)	i	0.9
CN(CCC(=O)Nc1ccc(Br)cc1)Cc1ccccc1	i	-1.6
O=C(Nc1cccc(OC(=O)c2ccco2)c1)c1ccco1	i	0.58
Cc1ccc(NC(=S)N2CCCC(O)C2)cc1 (stereo not given)	i	-2.3
COc1ccccc1/C=N/n1c(N)c(S(=O)(=O)c2cccs2)c2nc3ccccc3nc21	i	-0.14
c1ccc(-c2nnc(-c3ccccn3)nc2NC2CCCCC2)cc1	i	0.52
O=C(NCC(=O)N1CCN(S(=O)(=O)c2ccccc2F)CC1)c1ccc2ccccc2c1	i	1.6
Cc1ccccc1OCC(=O)Nc1ccccc1C(=O)N1CCCCC1	i	0.43
COc1ccc(O)c(C(=O)c2cc(SCC(=O)O)c3nc4sc5c(c4c(=O)n3c2)CCCC5)c1	i	-1.9
Cc1ccc(S(=O)(=O)N2CCCC2C(=O)Nc2nc3c(s2)CCCC3)cc1 (stereo not given)	i	-0.02
Cc1ccc(NC(=O)NCCN2CCN(C(=O)Nc3ccc(C)cc3)CC2)cc1	i	-0.44
CCOC(=O)CSC(CC)C(=O)Nc1nnc(C(C)C)s1 (stereo not given)	i	0.64
O=C(c1ccco1)N1CCN(C(=O)c2ccccc2OCc2ccc(Cl)cc2)CC1	i	0.62
COc1cccc(CC(NC(C)=O)C(=O)NC2CCN(C(=O)c3ccc(Cl)cc3)CC2)c1 (stereo not given)	i	-1.9
CCOC(=O)C1=C(CSc2nc3ccccc3s2)NC(=O)NC1c1cccc([N+](=O)[O-])c1 (stereo not given)	i	0.78
COc1ccc(C=O)cc1COc1ccc(F)cc1F	i	3.9
Cc1cccn2c(=O)nc(SCC(=O)N3N=C(c4cccs4)CC3c3ccc(F)cc3)nc12 (stereo not given)	i	-0.04
O=C(/C=C/c1ccccc1Cl)N(Cc1ccccc1)C1CCS(=O)(=O)C1 (stereo not given)	i	-0.75
COc1ccc(S(=O)(=O)n2c(C)nc3ccccc32)cc1C	i	-0.03
CCOC(=O)N1CCN(CC(=O)Nc2ccc(OC)cc2)CC1	i	0.02
COC(=O)C1=C(Nc2ccccc2NS(=O)(=O)c2ccc(C(F)(F)F)cc2Cl)CSC1	i	1.6
Cc1ccc(C)c(NC(=O)CN(C)C(=O)COc2ncnc3sccc23)c1	i	2
O=C(N/N=C/c1cc([N+](=O)[O-])ccc1O)c1ccc2c(c1)OCCO2	i	0.16
Cn1nnnc1SCC(=O)Nc1ccc2c(c1)OCCO2	i	-0.09
Cc1cccc(C)c1OCc1n[nH]c(=S)o1	i	1.6
Nc1ccn(-c2ncc(C(F)(F)F)cc2Cl)c(=O)n1	i	0.83
CC(C)NC(=O)CSc1nc2sccc2c(=O)n1-c1ccccc1	i	1.6
COCCNC(=S)NCc1ccc2[nH]c3c(c2c1)CCCC3	i	2.4
C=CCNC(=O)c1onc(CCl)c1C(=O)OC	i	0.38
O=C(Oc1ccccc1Cl)C1CCN(C(=O)c2ccc(F)cc2)CC1	i	-0.79
COc1ccccc1CNC(=O)CNC(=O)Cn1cnc2ccccc2c1=O	i	0.74
CN(CC(=O)Nc1ccc(F)cc1)C(=O)c1ccccc1OCc1ccc(F)cc1	i	-0.05
COc1ccc(CN(C)CC(=O)Nc2sc3c(c2C#N)CCC3)c(OC)c1	i	0.84
CCN(CC)CCNC(=O)Cc1nn(Cc2ccccc2)c(=O)c2ccccc12	i	-1.2
C/C(CC(=O)Nc1cc(C)ccn1)=N\NC(=O)C(=O)NC(C)C	i	-0.93
O=C(c1cc(COc2cccc3cnccc23)on1)N1CCCC(CCCO)C1 (stereo not given)	i	-2.3
O=C(Nc1ccccc1C(=O)O)c1ccc(Cl)c(S(=O)(=O)N2CCOCC2)c1	i	3.1
CCOC(=O)C1=C(O)/C(=C/c2ccccn2)SC1=Nc1ccc(Cl)cc1	i	-0.11

Whole records, looked up by structure. Order of screens: KCNQ2 block | KCNQ2 block baseline
Entry for `CN(CCC(=O)Nc1ccc(Br)cc1)Cc1ccccc1` : i | -1.6
Entry for `COC(=O)C1=C(Nc2ccccc2NS(=O)(=O)c2ccc(C(F)(F)F)cc2Cl)CSC1` : i | 1.6
Entry for `Cn1nc(C(F)(F)F)c(C(=O)Nc2ccc(C(F)(F)F)cc2)c1Cl` : i | 2.8
Entry for `COc1ccccc1CNC(=O)CNC(=O)Cn1cnc2ccccc2c1=O` : i | 0.74
Entry for `O=C(/C=C/c1ccccc1Cl)N(Cc1ccccc1)C1CCS(=O)(=O)C1` (stereo not given) : i | -0.75

(listing goes on)
SMILES	KCNQ2 block	KCNQ2 block baseline
CC(C)CNC(=O)C(=O)NNC(=O)C1CCCCC1	i	-0.11
CC(C)Nc1nnc(SC(C)C(=O)N(C)C2CCCCC2)s1 (stereo not given)	i	-0.27
O=C(Nc1cccc2cccnc12)c1ccc2c(c1)OCCO2	i	1.1
O=C1CNC(=O)/C1=C/c1ccccc1	i	2.9
Cc1cc(C)c(S(=O)(=O)N2CCc3ccccc32)c(C)c1	i	0.49
CCN(Cc1ccccc1)S(=O)(=O)c1cc(C(=O)NCC2CCCCC2)ccc1OC	i	0.01
O=C(CN1C(=O)NC2(CCCC2)C1=O)N1CCN(c2cccc(C(F)(F)F)c2)CC1	i	1.3
CC(C)CC(NC(=O)C1CCC(=O)N1C(=O)OCc1ccccc1)C(=O)NC(Cc1ccccc1)C(N)=O (stereo not given)	i	-1.3
CCOc1ccc(C2=Nn3c(nnc3-c3cccnc3)SC2)cc1	i	1.8
Cc1cc(C)n(CCOC(=O)c2sc3ccccc3c2Cl)n1	-10*	-7.8*
Cc1cccc(Nc2nc(N)c([N+](=O)[O-])c(N3CC(C)CC(C)C3)n2)c1 (stereo not given)	i	-0.45
O=C(N/N=C/c1ccccc1[N+](=O)[O-])c1cnccn1	i	-0.05
CC(=O)Nc1ccc2oc(-c3cc(F)c(F)cc3Cl)nc2c1	i	1.1
